# Screens from PubChem BioAssay.
# CSC inhib – cancer stem cell viability inhibitors, primary screen, luminescence; cancer stem cell-like cells viability; inhibition, % at 7.5 µM; hit rate 1.1% among 300,000;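 active means mean at 75% or more and at least half the replicates too; tested in HMLE shEcad cells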;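 further: 0% = median of negative and 100% = median of positive control wells; the first replicate is given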
# Env fusion inh – inhibitors of HIV-1 Env-driven cell-cell fusion, primary screen, HeLa-JRFL effector, CEM21 target cells, luciferase; inhibition, % at 12.3 µM; hit rate 1.1% among 360,000; AID 651610, 2012;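 active means mean replicate inhibition score of at least 50 and every replicate individually at or above 50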;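 further: 0% = plate neutral controls and 100% = maraviroc near 300 nM; one replicate is shown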
# Rce1 inh – yeast Rce1p protease inhibitors, primary screen, biochemical, fluorescence, cell-free homogeneous | CAAX prenyl protease 2 (Saccharomyces cerevisiae (strain ATCC 204508 / S288c)), Q03530 | yeast membranes, quenched prenylated peptide cleavage fluorescence | calls only | hit rate 0.27% among 290,000 | AID 2563, 2010;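 active means fall in fluorescence gain of 50% or more versus controls, with final raw signal at or below 3038400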;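 further: plate controls were neutral control wells for no effect and wells lacking membranes for full effect; tested at 10 µM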
# eIF4H inh – human eIF4H binding inhibitors, primary screen, translation initiation inhibitor project, biochemical, uHTS, fluorescence polarization; Eukaryotic translation initiation factor 4H (Homo sapiens), Q15056; eIF4H fluorescence polarization binding assay; inhibition, % at 35 µM; hit rate 0.94% among 290,000;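 active means 50% or more with normal probe brightness, or confirmed in later tests; about a fifth of its hits are not listed in these tables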;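 further: calls also rest on retests at 20 µM and on dose response follow-up; 0% = protein and probe with vehicle and 100% = probe without protein; strong numbers were not always called active; many hits fall short of the cut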
# MT1-MMP act inh – blockers of MT1-MMP proenzyme processing, primary screen, HT1080 RFP-PRO-GFP cells, GFP/RFP fluorescence. GFP/RFP ratio change, % at 20 µM. GFP/RFP ratio fluorescence, overnight; percent of plate control window, DMSO zero. Matrix metalloproteinase-14 (Homo sapiens), P50281. hit rate 0.061% among 360,000;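 active means GFP/RFP ratio change of at least 30% with cell ATP level not reduced by more than half and red fluorescence within 50% of control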; further: strong numbers were not always called active
#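 Material – HT1080 RFP-PRO-GFP cells · Control set – DMSO wells and RFP-L50D-GFP cells · Incubation – overnight cell settling, then overnight compound exposure, 37 °C, 5% CO2 · Compound dosing – single-point 20 µM compound, 1% DMSO · Read-out – GFP/RFP fluorescence ratio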
# UUG fidelity – modulators of yeast start codon fidelity, primary screen, whole organism, S. cerevisiae, single point, plate reader; S. cerevisiae UUG-firefly luciferase reporter, luminescence/redox ratio; activity score, % at 18.7 µM; hit rate 0.13% among 350,000; AID 602363, 2012;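 active means replicate mean at a twofold rise or more, about +100% in these data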;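 further: firefly luciferase made from a UUG start codon reports start codon fidelity; reporter light over untreated wells divided by growth signal over untreated wells; some hits fall short of that in this replicate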
# PABP polyA inh – PABP poly(A) RNA binding inhibitors, primary screen, biochemical, fluorescence polarization, uHTS; hit rate 1% among 290,000; inhibition, % at 35 µM; AID 2014, 2009; Polyadenylate-binding protein 1 (Homo sapiens), P11940;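 active means 50% or more with normal probe brightness, or confirmed in later tests; about a fifth of its hits are not listed in these tables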;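 further: calls also rest on retests at 20 µM and on dose response follow-up; controls were probe without protein and protein plus probe with vehicle; some compounds called inactive have numbers as strong as hits; many hits fall short of the cut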
# Target sequence (P11940 whole entry, looked up): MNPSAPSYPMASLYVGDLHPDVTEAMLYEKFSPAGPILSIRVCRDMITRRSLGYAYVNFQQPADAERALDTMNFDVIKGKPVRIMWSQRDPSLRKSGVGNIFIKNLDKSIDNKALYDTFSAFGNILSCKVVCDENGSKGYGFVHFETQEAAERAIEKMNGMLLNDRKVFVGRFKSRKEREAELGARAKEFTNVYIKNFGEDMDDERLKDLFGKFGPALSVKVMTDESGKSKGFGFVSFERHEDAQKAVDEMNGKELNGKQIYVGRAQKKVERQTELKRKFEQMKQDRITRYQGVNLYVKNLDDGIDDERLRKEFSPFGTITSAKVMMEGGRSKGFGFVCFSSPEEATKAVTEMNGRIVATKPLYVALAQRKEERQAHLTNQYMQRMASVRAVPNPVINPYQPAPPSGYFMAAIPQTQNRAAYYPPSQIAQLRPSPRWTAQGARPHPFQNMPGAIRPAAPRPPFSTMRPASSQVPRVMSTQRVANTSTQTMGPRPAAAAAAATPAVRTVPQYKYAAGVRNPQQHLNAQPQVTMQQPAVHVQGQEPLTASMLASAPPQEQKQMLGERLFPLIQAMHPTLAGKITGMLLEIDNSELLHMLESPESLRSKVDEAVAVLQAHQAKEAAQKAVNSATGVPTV
# eIF4H inh retest – also measured in eIF4H inh; calls as there; inhibition, %; compound at 20 µM; confirmation average;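 mean of two retest wells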
# PABP polyA inh retest – recorded beside PABP polyA inh, whose call it bears; inhibition, %; compound at 20 µM; confirmation repeats;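 mean of two retest wells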
# MT1-MMP act inh RFP – recorded beside MT1-MMP act inh, whose call it bears; RFP signal change, %; measured here: RFP expression control read;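 0 = vehicle wells; hits needed this value within 50% of zero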
# An asterisk follows results filed as active; i = inactive; / = not tested or not shown. An excerpt (hit frequency here may not be typical).
SMILES,CSC inhib,Env fusion inh,Rce1 inh,eIF4H inh,MT1-MMP act inh,MT1-MMP act inh RFP,UUG fidelity,PABP polyA inh,others
CCc1nn2c(=O)cc(COc3ccc(NC(=O)c4ccco4)cc3)nc2s1,17,8,i,6,-1,3,-15,-4,
CC1CCC(NC(=O)c2cc(Cl)nc3ccccc23)CC1 (centres undefined),2,-17,/,/,-1,4,-33,/,
O=C(Nc1ccccc1)N1CCCN(c2ccc(C(F)(F)F)cn2)CC1,0,22,i,6,10,-17,/,0,
CCCCN(CC)CCCNC(=O)CC1Nc2ccccc2NC1=O (centres undefined),0,/,i,-10,-7,1,12,-16,
COc1ccc(-c2noc(C(C)n3nc(C)c([N+](=O)[O-])c3C)n2)cc1OC (centres undefined),24,/,i,7,-1,-3,19,3,
COc1cccc(N2C(=O)C3CCCN3C2c2cccs2)c1 (centres undefined),-16,7,i,-1,0,2,18,-12,
O=C1CCC(C(=O)O)N1 (centres undefined),-11,/,i,-1,3,2,-8,-11,
CN(CC(=O)Nc1cccc(F)c1)C(=O)c1ccc(-c2cccc(C(F)(F)F)c2)o1,10,5,i,/,-4,-8,11,/,
CCOc1ccc(C(=O)OCC(=O)NC2CCCCCCC2)cc1,/,1,/,/,4,2,-19,/,
Cc1ccc(NC(=O)C2CC(=O)N/C(=N/NC(=O)c3ccc(C)cc3)S2)cc1 (centres undefined),-19,26,i,16,2,6,-19,0,
CCNC(=O)NC(=O)CN(C)c1ccccc1,-7,-8,i,1,2,1,-17,-5,
COc1ccc(-c2noc(CNC(=O)c3ccoc3C)n2)cc1,14,3,i,6,-1,-3,-17,-3,
COc1ccccc1OCC(=O)NCc1ccco1,4,-17,i,1,-1,1,6,0,
O=C(CSc1nc(-c2ccccc2)cc(=O)[nH]1)Nc1ccc(F)c(F)c1,13,27,i,-7,4,0,-9,10,
CCCCNC(=O)C(NC(=O)c1cccc(C(F)(F)F)c1)C(=O)c1ccccc1 (centres undefined),/,-21,/,/,0,-1,-17,/,
Cc1cc(C)cc(NC(=S)N2CCN(c3ccc(F)cc3)CC2)c1,-5,-19,i,4,4,4,/,-7,
Cc1ccc(C)c(NC(=S)N2CCN(CCO)CC2)c1,-16,1,i,-5,0,0,/,0,
COc1ccc(-n2ncc3c2CC(C)(C)CC3NC(=O)CCCN2CCCC2=O)cc1 (centres undefined),10,-6,i,-18,5,6,-2,-1,
CSc1cc(C)c(OCC(=O)Nc2c(C)nn(C)c2C)c(C)c1,-7,5,i,-10,-2,-12,-15,10,
CCOc1ccccc1/C=C(\C#N)C(=O)NC1CC1,-11,-6,i,/,-2,-1,-17,/,
S=C(c1cccs1)N1CCCC1,-15,-23,i,-5,0,4,-28,-13,
O=C(Nc1ccc(Br)cn1)c1ccc(Cl)s1,28,-83,i,-5,-2,-4,-5,-3,
C#CCn1c(=NC(=O)c2cc(-c3cccs3)nc3ccccc23)sc2cc(S(N)(=O)=O)ccc21,0,-44,i,2,-4,-1,/,0,
CC(C)CC(=O)N1CCC(O)(CS(=O)(=O)Cc2ccccc2Cl)CC1,-1,-56,i,-6,-2,3,-16,-3,
O=C(CCS(=O)(=O)c1ccc(Br)cc1)Nc1cc(F)ccc1F,-16,-14,i,82,-5,1,-15,-6,eIF4H inh retest=40;PABP polyA inh retest=4
# Next section
SMILES,CSC inhib,Env fusion inh,Rce1 inh,eIF4H inh,MT1-MMP act inh,MT1-MMP act inh RFP,UUG fidelity,PABP polyA inh,others
O=C(c1cc(-c2ccccc2)on1)N1CCc2ccccc2C1,4,-19,/,-4,2,1,/,11,
O=C(O)CC1c2ccccc2C=Cc2ccccc21,-1,/,i,/,1,8,7,/,
CCc1nnc(NC(=O)CSc2nnc(CNc3cccc(Cl)c3)n2CC)s1,34,20,i,4,0,-5,-18,-7,
COc1ccc(C(=O)NN2CC(O)=C(c3nc4ccccc4n3C)C2=N)cc1OC,3,-1,i,16,-8,4,-12,-3,
COc1ccc(C(=O)C2CCCN(C(=O)c3cccnc3OC)C2)c(C)c1 (centres undefined),0,19,i,1,4,3,/,0,
Nc1nonc1-n1nnc(C(=O)N/N=C/c2ccc(Br)cc2)c1CSC1=NCCS1,-2,20,i,-5,1,-8,-7,9,
CC(C)(C)OC(=O)C[C@@H]1C/C=C\C[C@H](CC(=O)N[C@@H](CO)Cc2ccccc2)C(=O)N[C@H](Cc2ccccc2)COC1=O,-5,-76,/,/,0,0,-16,/,
COc1ccccc1N(C(=O)CCl)c1cn(C(C)=O)c2ccccc12,17,24,i,4,-25,-30,-8,-6,
Cc1nc(CCNC(=O)CC2C(=O)NCCN2Cc2ccccc2)sc1C (centres undefined),-8,8,i,7,1,4,-7,14,
CN(CC(=O)Nc1cccc(F)c1)C(=O)c1sccc1-c1ccccc1,/,-4,/,/,0,-1,1,/,
CC(=O)Nc1ccc(Cl)cc1C(=O)c1ccc[nH]1,/,-9,/,/,4,2,-7,/,
COc1ccc(OCCOC(=O)c2ccc(-n3cnnn3)cc2)cc1,-13,/,i,-6,3,5,/,-6,
CN(C)CCN(C(=O)c1ccc(S(=O)(=O)N(C)c2ccccc2)cc1)c1nc2cc3c(cc2s1)OCCO3,-10,-13,i,-10,-2,-8,0,-6,
O=C1c2ccccc2C(=O)N1OCCOCCOCCBr,-1,/,i,-8,5,3,-14,18,
C(=C\c1ccccc1)/CN1CCN(C(CCc2ccccc2)c2nnnn2-c2ccc3c(c2)OCCO3)CC1 (centres undefined),/,-2,/,/,-4,-9,-6,/,
COc1ccccc1C(=O)N(NC(=O)Oc1ccccc1)C(C)(C)C,-5,-24,i,5,1,8,-11,-1,
COc1ccc(NC(=O)C(NC(=O)CC2NC(=O)NC2=O)c2ccccc2)cc1 (centres undefined),-11,-22,i,4,-7,3,/,-4,
Cc1ccc(C(C)(O)CS(=O)(=O)Cc2ccccc2Cl)cc1 (centres undefined),-2,-1,i,-4,2,2,-17,4,
O=C(CSc1ncn[nH]1)NCCOc1ccccc1,-13,/,i,-2,3,6,-23,-3,
CCc1cc(=O)oc2c3c(cc(OCC(=O)NCCCn4ccnc4)c12)OC(C)(C)CC3,74,/,/,-8,-2,-1,1,-7,
C=CCN1C(=O)C(Cc2ccc(SC(F)F)cc2)SC1=Nc1ccc(C(=O)O)cc1 (centres undefined),0,1,i,-4,10,3,4,3,
CCn1c(=O)cc(OCC(=O)NCC2CCCO2)c2ccccc21 (centres undefined),-6,-11,i,8,1,-4,/,-10,
CCOc1ccc(CCNC(=O)CSCc2ccc(C)cc2)cc1OCC,-10,-14,i,-14,-4,-10,/,-1,
CCOc1ccc(NC(=O)NCCN2CCN(c3cccc(C)c3C)CC2)cc1,14,15,i,6,3,0,-7,-7,
O=C(COC(=O)/C=C/c1cccc(Cl)c1)NC1CC1,/,3,/,/,-4,-1,-18,/,
# Continued.
SMILES,CSC inhib,Env fusion inh,Rce1 inh,eIF4H inh,MT1-MMP act inh,MT1-MMP act inh RFP,UUG fidelity,PABP polyA inh,others
Cc1csc(C2=C(O)CN(c3ccc4c(c3)OCCOCCOCCOCCO4)C2=N)n1,/,7,/,4,-2,3,-12,3,
O=C(O)c1ccc(CSc2nc3ccccc3o2)cc1,0,/,i,3,4,4,-9,9,
C=CCNC(=O)COc1coc(CN2CCN(Cc3ccccc3)CC2)cc1=O,15,-3,i,4,-1,-2,-6,1,
COc1ccc(Nc2nnc(SC(C(=O)Nc3ccc(OC)c(Cl)c3)c3ccccc3)s2)cc1 (centres undefined),30,/,i,2,-2,-10,/,8,
COC(=O)c1cc(C(=O)c2cc(F)ccc2O)cn2c(=O)c3c(C)c(C)sc3nc12,15,10,/,24,-180,-12,-8,8,
COc1ccc(/C=N/NC(=O)c2ccc(Cn3cc([N+](=O)[O-])cn3)o2)c(OC)c1C,4,/,i,-4,0,-3,/,-5,
O=C(COc1ccc(S(=O)(=O)N2CCOCC2)cc1)NCCN1CCOCC1,-12,4,i,9,-2,2,-9,4,
O=C(Oc1ccccc1)c1ccccc1,/,-16,/,/,-1,6,-4,/,
Cc1cccc(NC(=S)N/N=C(\c2ccccc2)C(C)C)c1,11,-8,i,7,-1,0,/,9,
Cc1ccc(/C=N/NC(=O)c2ccc(NC(=O)c3ccc(Cl)cc3)cc2)o1,-16,-23,i,-5,1,1,-12,2,
O=C(c1ccc(OC2CCN(Cc3ccc(F)cc3)CC2)cc1)N1CCCC1,10,-3,i,-2,2,-1,-5,12,
Cc1nn(C)c(C)c1CN(C(=O)CCc1nnc(Cc2c[nH]c3ccccc23)o1)C(C)C,-8,24,i,4,-7,-6,/,-1,
CCOc1ccc(S(=O)(=O)N2CCOCC2)cc1NC(=O)CN1C(=O)NC(C)(c2ccccc2)C1=O (centres undefined),-4,/,i,/,-2,-1,17,/,
Cc1ccccc1Oc1cc(-n2ncc(Cl)c(Cl)c2=O)ncn1,108*,-12,/,4,-39,-40,-4,-1,
CC(C)CN1C(=O)CC(Sc2ccccc2C(=O)O)C1=O (centres undefined),-7,-83,i,-13,-1,2,-11,13,
CCOP(=O)(OCC)C(NC(=O)Nc1ccc(C)c(Cl)c1)c1ccccc1 (centres undefined),-3,-17,i,-6,-2,-2,/,3,
CC1CC(C)CN(C(=O)CNS(=O)(=O)c2ccc(Br)s2)C1 (centres undefined),-10,-19,i,-5,4,-3,-5,-11,
CN(C)c1nc(OCCOC(=O)COc2ccc(Cl)cc2Cl)nc(N(C)C)n1,/,-73,i,-1,5,2,-15,-5,
C/C(=N/NC(=O)CNC(=O)C(c1ccccc1)c1ccccc1)c1ccco1,-8,6,i,1,3,0,/,-5,
CCOc1ccccc1CNC(=O)C1CCN(c2nnc(C)c3c(C)n(-c4ccc(C)cc4)nc23)CC1,18,12,i,-28,-12,-7,-14,-28,
C=CCNC(=O)Nc1ccc2oc(C)nc2c1,3,/,i,8,7,6,-18,-1,
O=C(COC(=O)c1cc(-c2ccco2)nc2ccccc12)NCc1ccccc1,0,-102,i,67,-9,0,-12,21,eIF4H inh retest=4;PABP polyA inh retest=1
CNCC(=O)N1CCN(c2ncc(C(F)(F)F)cc2Cl)CC1,6,7,i,7,0,5,/,3,
COC(C)(C)[C@H](O)COc1c2ccoc2cc2oc(=O)ccc12,16,/,i,-7,-1,0,-19,-2,
CC(=O)Nc1ccc(C(=O)NCCN2CCOCC2)cc1,-10,16,i,0,3,4,-4,6,
Cc1ccc(N)cc1NC(=O)CN1CCOCC1,1,4,i,7,-2,-2,-7,-6,

# Filtered by structure: those above containing a COOH group (5)
SMILES,CSC inhib,Env fusion inh,Rce1 inh,eIF4H inh,MT1-MMP act inh,MT1-MMP act inh RFP,UUG fidelity,PABP polyA inh,others
O=C1CCC(C(=O)O)N1 (centres undefined),-11,/,i,-1,3,2,-8,-11,
O=C(O)CC1c2ccccc2C=Cc2ccccc21,-1,/,i,/,1,8,7,/,
C=CCN1C(=O)C(Cc2ccc(SC(F)F)cc2)SC1=Nc1ccc(C(=O)O)cc1 (centres undefined),0,1,i,-4,10,3,4,3,
O=C(O)c1ccc(CSc2nc3ccccc3o2)cc1,0,/,i,3,4,4,-9,9,
CC(C)CN1C(=O)CC(Sc2ccccc2C(=O)O)C1=O (centres undefined),-7,-83,i,-13,-1,2,-11,13,
